Source: PubChem BioAssay
RecA intein inh = blocks M. tuberculosis RecA intein splicing; cell-free RecA intein splicing, fluorescence; inhibition, %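 (about 9 µM by stock and volumes)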; hit rate 0.75% among 290,000; in the data active means inhibition above about 30%; inconclusive means no clear call, values can overlap the other calls;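 further: 0% = vehicle wells and 100% = reference inhibitor control wells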
Target sequence (P9WHJ3 whole entry, looked up): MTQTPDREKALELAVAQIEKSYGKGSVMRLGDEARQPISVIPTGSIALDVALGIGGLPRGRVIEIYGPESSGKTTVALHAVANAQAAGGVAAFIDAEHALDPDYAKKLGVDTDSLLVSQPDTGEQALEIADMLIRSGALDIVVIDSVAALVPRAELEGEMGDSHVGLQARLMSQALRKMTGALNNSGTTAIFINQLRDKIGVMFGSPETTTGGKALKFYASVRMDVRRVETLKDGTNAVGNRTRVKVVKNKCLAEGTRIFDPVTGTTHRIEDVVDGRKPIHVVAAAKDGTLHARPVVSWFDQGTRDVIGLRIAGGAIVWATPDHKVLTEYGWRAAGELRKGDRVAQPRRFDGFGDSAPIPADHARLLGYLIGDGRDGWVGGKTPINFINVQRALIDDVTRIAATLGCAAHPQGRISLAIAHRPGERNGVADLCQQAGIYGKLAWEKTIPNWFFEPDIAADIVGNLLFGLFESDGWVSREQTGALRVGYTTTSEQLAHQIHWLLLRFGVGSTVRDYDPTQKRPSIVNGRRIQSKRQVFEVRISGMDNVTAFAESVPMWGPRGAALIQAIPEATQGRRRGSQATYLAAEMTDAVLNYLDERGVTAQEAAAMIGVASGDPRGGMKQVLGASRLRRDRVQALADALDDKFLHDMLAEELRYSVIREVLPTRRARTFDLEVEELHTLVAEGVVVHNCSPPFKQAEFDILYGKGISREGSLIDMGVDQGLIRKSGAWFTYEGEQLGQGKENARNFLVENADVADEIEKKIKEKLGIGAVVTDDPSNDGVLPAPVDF
Mtb growth = M. tuberculosis H37Rv growth inhibitors, H37Rv strain (AID 1626); M. tuberculosis H37Rv growth inhibition; higher % means a stronger effect; inhibition, % at 10 µM; hits with a dose series show IC50 in µM; hit rate 0.95% among 220,000;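 active means confirmed in a dose series; inconclusive means inhibition above 80% but not taken into the dose series; inactive means below 80% or under 30% at every dose of the series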;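 further: bacteria incubated seven days before Alamar blue readout; 0% = bacteria only wells and 100% = bacteria with antibiotic wells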
YopH inh = YopH (Yersinia) phosphatase inhibition. AID 898. fluorescence Ex485/Em525. hit rate 0.16% among 140,000. inhibition, %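 (about 10 µM by stock and volumes)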;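 active means inhibition of 50% or more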;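 further: controls were vehicle for no effect and minimum signal wells for full effect; inactives centre near -20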
Arbovirus inh = blocks arbovirus infection; hit rate 0.37% among 200,000; inhibition, % at 10 µM; AID 1251; arbovirus infection cell-based antiviral screen;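 active means inhibition from about 30%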;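 further: bluetongue infection of BSR cells; cell survival read as ATP light after 72 h; 0% = infected wells without compound and 100% = uninfected wells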
Mtb betalactam = beta-lactam sensitization of Mtb H37Rv. hit rate 0.27% among 330,000. M. tuberculosis H37Rv growth with meropenem, percent inhibition; hits of this screen are not shown here. inhibition, % at 25 µM. AID 434955;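 active means about 74% or more and at least 40 points above the plate without the antibiotic, then above 30% in a dose series; inconclusive means first-round hits that could not be retested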;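 further: growth measured after seven days incubation then overnight dye step; 0% = bacteria only wells and 100% = bacteria with antibiotic; twin plates without the antibiotic show which effects depend on it; some results filed as inactive read as strong as hits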
Arbovirus inh repeat = further read-out of Arbovirus inh, marked with its call; inhibition, %; measured here: 10K subset replicate screen; many hits read low in the repeat;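 first of two repeat runs on a subset; 0% = infected and 100% = uninfected wells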
Active calls of the source: *; ? = inconclusive; nt = no result given. These rows are one share of the data; rates above refer to the full screens.

SMILES | RecA intein inh | Mtb growth | YopH inh | Arbovirus inh | Mtb betalactam | others
O=C(COC(=O)c1ccc2[nH]c3c(c2c1)CCCC3)Nc1ccccc1Cl | -3.5 | 6.6% | nt | 1.4 | 0.5
COc1ccc(-c2cc(OC)c3c(C)oc(C)c3c(=O)c2)cc1OC | -1.3 | -13.0% | 0.1 | -15.5 | 3.3
OC(CCN1CCCC1)(c1ccccc1)C1CCCCC1 (stereo not drawn) | 0.2 | -5.5% | -17.2 | 0.1 | -11.0
CCOc1ccccc1N1CCN(c2nc(N)c(C#N)c(CC#N)c2C#N)CC1 | 7.5 | -2.5% | -7.2 | -0.2 | 2.8
COc1ccccc1CCNC1CCC(C(C)(C)C)CC1 (stereo not drawn) | 2.3 | 1.9% | -8.0 | 21.6 | -12.7
O=C(Cn1nnc(-c2ccccc2)n1)NCc1ccccc1 | -0.9 | 10.4% | -4.8 | 6.5 | 5.7
CN1C(C(=O)NCc2ccc(OC(F)(F)F)cc2)CC2Cn3c(nc4ccccc43)C21 (stereo not drawn) | 1.6 | -8.8% | nt | nt | -4.2
COc1ccc(Nc2nnc(-c3ccccc3)c3ccccc23)cc1C(=O)N1CCCCC1 | 7.2 | -0.4% | -40.2 | -9.4 | 5.3
CCO[C@H]1OC(C(=O)NCc2nc3ccccc3[nH]2)=C[C@@H](c2csc3ccccc23)[C@@H]1CCCO | 9.1 | 40.0% | nt | -14.3 | 99.0
COC(=O)Cc1c(C)c2ccc(OCC(C)=O)c(C)c2oc1=O | 6.8 | 1.6% | -10.6 | -0.5 | -14.0
CCCCC(=O)N/N=C/c1c(O)n(CC)c(=S)n(CC)c1=O | -4.6 | -2.2% | -31.2 | 4.4 | -1.2
Cc1c(CN2CCCC(C(=O)Nc3cccc(-n4cccn4)c3)C2)cnn1C (stereo not drawn) | -0.3 | nt | nt | nt | -0.2
CC(/C=N/NC(=O)Cc1cccn1C)=C\c1ccco1 | 2.4 | -8.6% | -35.7 | -1.7 | 0.6
COc1ccc(NC(=O)COC(=O)c2c(C)noc2C)c(OC)c1 | 0.0 | 2.2% | -25.4 | 0.4 | -4.2
CCOC(=O)N1CCN(C(=O)c2ccc3c(SCC(=O)O)c4c(nc3c2)CCCC4)CC1 | 2.5 | -6.7% | -8.1 | 7.3 | 1.6

In the list so far, 3 contain sulfur.
SMILES | RecA intein inh | Mtb growth | YopH inh | Arbovirus inh | Mtb betalactam | others
CCO[C@H]1OC(C(=O)NCc2nc3ccccc3[nH]2)=C[C@@H](c2csc3ccccc23)[C@@H]1CCCO | 9.1 | 40.0% | nt | -14.3 | 99.0
CCCCC(=O)N/N=C/c1c(O)n(CC)c(=S)n(CC)c1=O | -4.6 | -2.2% | -31.2 | 4.4 | -1.2
CCOC(=O)N1CCN(C(=O)c2ccc3c(SCC(=O)O)c4c(nc3c2)CCCC4)CC1 | 2.5 | -6.7% | -8.1 | 7.3 | 1.6

(listing goes on)
SMILES | RecA intein inh | Mtb growth | YopH inh | Arbovirus inh | Mtb betalactam | others
CCOCCCNC(=O)c1cccs1 | -0.6 | -5.4% | -40.1 | -3.0 | -0.5 | Arbovirus inh repeat=-1.0
CC(=O)OCCOc1nc(N(C)C)nc(N(C)C)n1 | 0.2 | -6.1% | -31.9 | -1.2 | -7.2
C/C(=N/NC(=O)c1cccc(N2CCCC2=O)c1)c1ccc(Br)cc1 | -1.4 | nt | nt | nt | 2.0
Cc1c(Cc2ccc3c(c2)OCO3)sc(NC(=O)c2ccccc2)c1C(N)=O | -0.6 | 10.9% | -13.7 | -10.8 | 7.7
NC(=S)N/N=C/c1ccc(-c2cc(Cl)ccc2Cl)o1 | 8.0 | 36.1% | -27.0 | -28.1 | 93.6
Cc1cc(Oc2ccc(=O)[nH]n2)nc(Cl)n1 | 0.6 | -4.1% | nt | nt | 5.5
Cc1cc(C)cc(OCC(=O)Nc2ccc(CN3CCCCC3)cc2)c1 | 2.0 | 3.8% | nt | 2.1 | -11.1
NC(=O)c1nsc(C(=O)N(CC(=O)NCc2ccccc2)c2cccc(F)c2)c1N | -2.9 | nt | nt | nt | 1.2
Cc1[nH]c(-c2ccccn2)nc(=S)c1Cl | 1.8 | 77.3% | nt | nt | ?
CC(NC(=O)c1ccccc1Cl)c1nnc(SCC(=O)Nc2ccc(C(=O)O)cc2)n1C (stereo not drawn) | 0.8 | 0.3% | -27.5 | 3.4 | -1.8
CC(C)(c1ccccc1)c1ccc(OCCN2CCOCC2)cc1 | 2.6 | nt | nt | nt | 6.6
COc1ccc(CCNS(=O)(=O)c2ccc(C(=O)NCc3ccco3)cc2)cc1OC | 0.2 | 1.9% | -50.4 | -0.7 | 5.0
CCCCC(=O)NC(=S)NNC(=O)CCc1ccccc1 | 14.6 | 8.6% | nt | nt | 0.6
O=C(Nc1ccc(-c2nc3cccnc3s2)cc1)C1CCCO1 (stereo not drawn) | -0.7 | nt | -6.9 | -3.7 | 3.2
CC1=C(C(=O)OC(C)C)C(c2cncc(-c3ccc(F)cc3)c2)C(C#N)=C(N)O1 (stereo not drawn) | 1.5 | 4.9% | 0.3 | -4.5 | 5.2
CCS(=O)(=O)N1CCC(NC(=O)C(Cc2ccc(OC)c(OC)c2)NC(C)=O)CC1 (stereo not drawn) | 0.0 | nt | nt | nt | -2.7
COc1ccccc1N1CCN(c2nc(-c3ccccc3)cc(C(F)(F)F)n2)CC1 | -0.6 | -11.4% | -24.7 | 1.3 | -6.4
Cc1cc(N2C(=O)C3CCCN3C2c2ccc(Cl)c(Cl)c2)no1 (stereo not drawn) | 1.7 | -6.8% | -5.9 | 2.7 | -7.1
CCOc1ccccc1NC(=O)C1COc2ccccc2O1 (stereo not drawn) | 10.1 | nt | nt | nt | 54.1
CCCNS(=O)(=O)c1ccc(CCC(=O)N2CCN(CC)CC2)cc1 | 1.3 | -6.4% | -26.0 | 9.2 | 3.4
COc1ccc(C(c2nnnn2C(C)C)N2CCN(C(=O)c3ccco3)CC2)cc1 (stereo not drawn) | 0.2 | nt | nt | nt | -0.1
COc1ccc(-c2cn3cccnc3n2)cc1NC(=O)C1CC1 | -8.0 | -3.8% | 5.3 | 0.1 | 3.3
Cc1ccc(S(=O)(=O)NCC(=O)N(CC2CCCO2)C(C(=O)NC2CCCC2)C(C)C)cc1 (stereo not drawn) | 4.1 | nt | nt | nt | -10.8
Clc1ccc(-c2csc(N/N=C/c3ccco3)n2)cc1 | nt | 10.5% | nt | nt | 57.0
COc1ccccc1NC(=O)CN1C(=O)C(C)Oc2ccccc21 (stereo not drawn) | -0.6 | -9.1% | -12.5 | -0.2 | -15.0
COc1ccccc1NS(=O)(=O)c1ccc(O)c(C(=O)OCc2cccc([N+](=O)[O-])c2)c1 | 0.8 | -4.9% | nt | 12.7 | 1.8
CCOC(=O)CSc1ncc(-c2ccccc2)nn1 | -1.5 | 0.8% | -17.2 | 4.0 | -0.5
COc1ccc(-c2cc(C(F)(F)F)n3ncc(C(=O)NCC4CCCO4)c3n2)cc1OC (stereo not drawn) | -42.8 | 1.6% | -30.6 | -4.2 | 7.9
O=C(CCCCCn1nnc2ccccc2c1=O)Nc1ccccc1F | 0.2 | nt | nt | nt | -6.1
CCOc1c(Cl)cnn(-c2ccc(C)cc2)c1=O | 1.1 | 3.1% | -32.1 | 7.5 | -3.9
CCOc1ccc2[nH]c(=O)c(CN(CCN3CCCC3)C(=S)Nc3ccccc3OCC)cc2c1 | 0.2 | 5.3% | nt | -22.4 | 1.7
Cc1nn(C(C)C(=O)NCC2CCCO2)c(=O)c2c1sc1ccccc12 (stereo not drawn) | 6.6 | nt | nt | nt | -5.0
CCOC(=O)N1CCN(C(=O)C(=O)Nc2sc3c(c2C(=O)O)CC(C)(C)OC3)CC1 | 1.5 | nt | nt | nt | 2.0
Cc1nn(CC(N)=O)c(=O)c2ccccc12 | -0.7 | -14.9% | -39.2 | 1.4 | -19.9
O=C(/C=C/c1ccccc1)OCC(=O)c1ccc[nH]1 | 3.6 | nt | nt | nt | -2.2
CN(C)S(=O)(=O)c1ccc(C(=O)NCc2nnc(SCC(=O)c3ccccc3)o2)cc1 | 1.5 | nt | nt | nt | -17.6
CN(C)S(=O)(=O)c1ccc(C(=O)OCC2COC(C)(C)O2)cc1 (stereo not drawn) | 0.2 | nt | nt | nt | -1.2
Cc1nc(Cl)sc1C(=O)Nc1cc(F)cc(F)c1 | 1.8 | nt | nt | nt | -0.7
O=C(COC(=O)c1cc[n+]([O-])cc1)NCCc1ccc(Cl)cc1Cl | 3.0 | -6.9% | nt | 8.0 | -0.7
Cc1cccn2c(=O)c(C(=O)NC3CC(C)CC(C)(C)C3)c(O)nc12 (stereo not drawn) | -0.2 | nt | nt | nt | 0.1
COc1ccc(CCNC(=O)C2CCC(=O)N2CCc2ccccc2)cc1OC (stereo not drawn) | 0.4 | -3.8% | nt | 3.8 | -3.1
CCOC(=O)c1ccc(NC(=O)N2CCN(Cc3cccc(F)c3)CC2)cc1 | 1.9 | ? | 8.4 | -23.6 | 57.0
N#CCCn1cc(/C=N/NC(N)=S)c(-c2ccccc2)n1 | 0.9 | 0.4% | nt | -7.6 | 21.5
CCN(CC)CCNC(=S)Nc1ccc2nc(N3CCN(C)CC3)cc(C)c2c1 | -3.2 | nt | nt | nt | -2.6
O=c1oc2ccc(Br)cc2cc1S(=O)(=O)c1ccc(F)cc1 | 3.7 | 6.2% | -2.3 | 6.8 | -3.7
CS(=O)(=O)c1ccc(N)cc1 | nt | -1.1% | -35.6 | -1.4 | 5.9 | Arbovirus inh repeat=1.6
CS(=O)(=O)N(CC(=O)NCC1CCCO1)c1cc(Cl)cc(Cl)c1 (stereo not drawn) | 4.0 | 6.9% | -28.0 | 4.0 | 2.8
CCN(CC)C(=O)CSc1nnc2sc3ccccc3n12 | -2.0 | -1.3% | -44.4 | 6.5 | ?
COc1cccc(NC(=O)NCC2CCN(Cc3ccc(F)cc3)CC2)c1 | 0.5 | nt | nt | nt | -6.0
Cc1nonc1CC(=O)NC1CCCc2c1cnn2-c1ccc(F)cc1F (stereo not drawn) | -0.8 | nt | nt | nt | -3.2
CCOC(=O)C(C(=O)OCC)C(Nc1ccccc1)c1ccccc1 (stereo not drawn) | 0.7 | 1.1% | -34.0 | 1.8 | 5.1
CCCCCCOC(=O)C(C#N)c1nc2ccccc2nc1N1CCN(C)CC1 (stereo not drawn) | 9.2 | 4.1% | 2.2 | -24.2 | 88.2
COCc1cc(C)nc(SCc2ccc(F)cc2)c1C#N | 4.9 | nt | nt | nt | 14.1
COc1ccc(-c2nn3c(-c4ccco4)nnc3s2)cc1OC | 2.3 | 1.4% | -36.9 | -10.9 | 44.8
COc1cc(C2CC(=O)N(c3ccc(C)cc3)C(=O)C2)cc(OC)c1OC | -2.0 | -3.0% | nt | nt | 1.0
O=C1COc2ccc(S(=O)(=O)Nc3ccc4c(c3)OCO4)cc2N1 | nt | nt | nt | 1.9 | 2.4
CCOC(=O)c1ccc(NC(=O)N2CCN(Cc3ccccc3)CC2)cc1 | -1.1 | >100µM* | nt | -16.0 | 2.0
CCCn1ncc(CN2CCC(N3CCC(C(=O)N4CCOCC4)CC3)CC2)c1C | -2.0 | -2.1% | nt | 3.0 | -0.8
COc1ccc(CCN2C(=O)/C(=C\c3ccco3)SC2=S)cc1OC | 4.5 | 4.8% | nt | 6.7 | nt
O=C(NNc1nc(-c2ccc(Cl)cc2)cs1)c1ccco1 | -1.3 | ? | -12.0 | -33.2 | 98.3
More records follow:
SMILES | RecA intein inh | Mtb growth | YopH inh | Arbovirus inh | Mtb betalactam | others
COc1cc(CC(=O)OCC(=O)N2CC(=O)Nc3ccccc32)cc(OC)c1OC | 1.4 | 2.1% | nt | 0.3 | -9.2
O=C(NCc1cccs1)c1cnc2ccccn2c1=O | -0.4 | -5.2% | -23.2 | 5.8 | -18.9
O=C(O)C1C(c2ccccc2)C(C(=O)OCCCO)C1c1ccccc1 (stereo not drawn) | -5.2 | -2.4% | -45.9 | 12.8 | ?
CCC12CC3CC(C1)CC(C(=O)O)(C3)C2 | -0.4 | -4.3% | -33.4 | -1.8 | 1.6
CCc1c(C)nc2[nH]nc(-c3ccccc3C)n2c1=O | 1.3 | -3.5% | -11.2 | 4.1 | -1.5
O=C1CCCN1C(=O)CCC(=O)N1CCCC1=O | -0.5 | 1.1% | -34.3 | 3.3 | 5.1
COc1ccc(CNc2nc3ccc(C)cc3s2)c(OC)c1OC | 1.9 | nt | nt | nt | 1.8
CCOC(=O)c1c(C)[nH]c(C)c1C(=O)COC(=O)C1CCCN1S(=O)(=O)c1ccccc1F (stereo not drawn) | 1.4 | nt | -39.2 | 8.9 | -0.4
CC/C(=N\NC(=S)Nc1ccccc1)c1c(O)[nH]c(=O)[nH]c1=O | 0.8 | 8.6% | nt | nt | -4.9
Cc1cc(C)nc(SCCC(=O)Nc2ccccc2)n1 | -1.3 | -3.8% | -25.9 | -5.6 | 14.2
COc1ccc2oc(C(=O)NNC(=O)c3ccc(F)cc3)c(C)c2c1 | 0.4 | nt | nt | nt | 1.5
